Compound activity as filed in PubChem BioAssay.
AmpC inh no det: AmpC beta-lactamase inhibition, detergent-free assay. 1.8% of 71,000 active. AmpC nitrocefin hydrolysis, absorbance 480 nm, no detergent; potencies from a single point are estimates. Potency, µM (doses to about 28.7 µM), for the others: top-dose activity change, negative = inhibition. P00811; active = falling curve, for most hits resting on a single point; inconclusive = weak or doubtful change; inactive = flat or rising curve; further: % of control where 0% means no effect; about half of the hits show no inhibition at the top dose; a quarter of the inactives give rising signals
Target sequence (P00811 whole entry, looked up): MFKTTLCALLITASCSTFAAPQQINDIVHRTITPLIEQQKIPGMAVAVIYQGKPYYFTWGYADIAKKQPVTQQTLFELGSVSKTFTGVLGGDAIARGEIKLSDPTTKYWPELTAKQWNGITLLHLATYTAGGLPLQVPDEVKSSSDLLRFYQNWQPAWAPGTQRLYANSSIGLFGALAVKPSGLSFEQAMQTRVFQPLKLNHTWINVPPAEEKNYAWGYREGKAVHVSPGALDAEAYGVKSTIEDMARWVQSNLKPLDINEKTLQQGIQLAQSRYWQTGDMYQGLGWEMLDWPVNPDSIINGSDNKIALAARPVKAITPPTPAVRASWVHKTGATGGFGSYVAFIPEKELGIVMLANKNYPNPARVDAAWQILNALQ
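Enzyme, pH 7.0 phosphate. Compound titrations were pre-incubated with AmpC for 15 min at room temperature before nitrocefin (stock 800 uM) addition; product formation was recorded at 480 nm every 20 s for 4 min.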
* marks the source's active call; other numbers are inactive results; & = joins results of further samples; [ ] = dose if it differs, or a comment. Potency means the concentration at half of the fitted maximal effect.

SMILES	AmpC inh no det
COc1ccc(N2C(C)=CS/C2=C(/C#N)c2nnc(N3CCOCC3)n2-c2ccccc2)cc1	65.6%
O=C(NCCc1c[nH]c2ccccc12)c1c(Cl)nc2sccn12	12.6µM*
O=C(c1ccco1)N1C(=O)c2cccc3c(S(=O)(=O)N4CCCC4)ccc1c23	20.5%
O=C(Nc1nc2c(s1)CCc1ccccc1-2)c1cccs1	-24.9%
Cn1c(=O)c2c(nc(Br)n2Cc2ccccc2Cl)n(C)c1=O	25.5%
COCC(=O)N1CCC2(CC1)CN(C(c1ccccc1)c1ccccc1)C2	61.5%
CCOC(=O)C1C(=O)CC(O)(c2ccccc2)CC1c1ccccc1 (stereo not drawn)	14.5%
COc1ccccc1CN1CCCC2(CCN(C(=O)c3c(C)noc3C)CC2)C1	-3.7%
Cc1cc(C)cc(N(CC(=O)NCc2ccc3c(c2)OCO3)C(=O)CCC(=O)Nc2ccccn2)c1	65.4%
Nc1ccc(N)c(Cl)c1	-16.8%
Cc1ccc(Nc2nc(Oc3ccc(=O)[nH]n3)nc(N(C)C)n2)cc1	15.0%
O=C(O)C1C2CCCCC2=C2CCCCC2C1C(=O)O (stereo not drawn)	2.4%
CCCCN=C(C)C1=C(O)CSC1=O	-14.8%
Cc1cc(C)c2c(C)nn(C3CCCCC3)c2n1	37.1%
CC1=C(C)CC2C(=O)N(c3cccc4ccccc34)C(=O)C2C1 (stereo not drawn)	32.1%
O=C(CSCCc1ccccn1)Nc1ccccn1	-10.3%
CCOC(=O)Cc1csc(NC(=O)CSc2nnc(-c3ccncc3)n2Cc2ccco2)n1	72.3%
Cc1ccc(CN2CCNC(=O)C2CC(=O)O)o1 (stereo not drawn)	5.5%
O=C(Nc1ccc2c(c1)OCCO2)c1ccc2nccnc2c1	-6.0%
CCN(CC)CC[n+]1ccc2c(C)c3[nH]c4ccccc4c3c(C)c2c1	-9.7%[5.75 µM]
Cc1nc2sc(C(c3ccco3)N3CCN(C(c4ccccc4)c4ccccc4)CC3)c(O)n2n1 (stereo not drawn)	1.0%
CCCn1c(N)c(C(=O)CSc2nnc(-c3ccco3)n2Cc2ccccc2)c(=O)[nH]c1=O	18.9%
C[N+](C)(CCCOc1ccccc1)c1ccccc1	-6.6%[12.8 µM]
Nn1cc(-c2ccccc2)nc1SCC(=O)N1CCN(S(=O)(=O)c2ccccc2)CC1	76.6%
COC(=O)C1=C(C)Nc2ccc(C)cc2S1	3.98µM*[single pt active]
Cn1c(Cc2ccccc2)nnc1SCC(=O)N1CCOCC1	-0.1%
Cn1c(=O)[nH]c(=O)c2c1nc(CN1CCN(c3cccc(Cl)c3)CC1)n2CCCc1ccccc1	48.0%
CCOc1ccccc1N1CC(C(=O)Nc2nccs2)CC1=O (stereo not drawn)	1.5%
Cc1ccc(C)c(-n2c(SCC(=O)NCC3CCCO3)nnc2-c2ccoc2C)c1 (stereo not drawn)	79.5%
FC(F)Sc1nnc(-c2cccs2)n1-c1ccccc1	8.6%

Compounds shown so far with an aryl thioether with sulfur outside any ring, in the order listed:
SMILES	AmpC inh no det
CCOC(=O)Cc1csc(NC(=O)CSc2nnc(-c3ccncc3)n2Cc2ccco2)n1	72.3%
CCCn1c(N)c(C(=O)CSc2nnc(-c3ccco3)n2Cc2ccccc2)c(=O)[nH]c1=O	18.9%
Nn1cc(-c2ccccc2)nc1SCC(=O)N1CCN(S(=O)(=O)c2ccccc2)CC1	76.6%
Cn1c(Cc2ccccc2)nnc1SCC(=O)N1CCOCC1	-0.1%
Cc1ccc(C)c(-n2c(SCC(=O)NCC3CCCO3)nnc2-c2ccoc2C)c1 (stereo not drawn)	79.5%
FC(F)Sc1nnc(-c2cccs2)n1-c1ccccc1	8.6%

Continuation.
SMILES	AmpC inh no det
CCOc1cc(C)c(Cl)cc1S(=O)(=O)NCC1CCCO1 (stereo not drawn)	29.2%
C=CCSc1nnc(NC(=O)CSc2nc3ccccc3o2)s1	10µM*[single pt active]
COc1ccc(N2CCn3c2nc2c3c(=O)n(CCc3ccccc3)c(=O)n2C)c(OC)c1	34.4%
CCOc1ccc(CCNC(=O)C2CCN(c3ccc(N4CCOCC4)nn3)CC2)cc1OCC	73.5%
COc1ccc(CC(=O)Nc2nccs2)cc1OC	7.5%
O=C(CN(CC1CCCO1)C(=O)CCC(=O)Nc1nccs1)NCc1ccc2c(c1)OCO2 (stereo not drawn)	9.4%
CCCCNC(=O)CS(=O)Cc1nc(-c2cccs2)oc1C (stereo not drawn)	-15.6%
CN1Cc2sc(N)c(C#N)c2CC1(C)C	-1.7%
Cc1nc2cnc(N3CCOCC3)nc2n(C2CC2)c1=O	2.1%
CCn1c(SCc2c(F)cccc2Cl)nnc1-c1ccco1	8.9%
O=C1C2(c3ccccc3)CN(CCCO)CC1(c1ccccc1)CN(CCCO)C2	12.9%
CCN(CC(=O)NCc1cccs1)S(=O)(=O)c1cccc(C(C)=O)c1	-4.5%
CN(Cc1ccccc1)Cc1nc2c(c(=O)n(C)c(=O)n2C)n1CCCc1ccccc1	122.8%
Cn1c(SCc2nc3ccccc3[nH]2)nnc1-c1ccccn1	-0.3%
Cc1ccccc1OCCn1c(=O)oc2ccccc21	9.8%
CCOC(=O)C(O)(c1ccc(NC(=O)c2ccco2)c(OC)c1)C(F)(F)F (stereo not drawn)	25.4%
[O-][Cl+]O	-7.1%
CN1CCN(c2ncnc3ccc(-c4cccc(C#N)c4)cc23)CC1	36.6%
O=C1c2ccccc2-c2nccnc21	-10.7%
Cc1nn(-c2ccccc2)c(Cl)c1C1C(C#N)=C(N)Oc2c1c(=O)oc1ccccc21 (stereo not drawn)	37.1%
CC(C)[C@@H](CC(=O)N[C@@H]1CCNC[C@H]1C(=O)N[C@H](CC(=O)N[C@@H](CCC(=O)O)CC(=O)O)Cc1c[nH]c2ccccc12)NC(=O)C[C@H](CO)NC(=O)[C@@H]1CCCC[C@H]1N	41.6%
Cc1csc(NC(=O)Nc2cccc(Cl)c2)n1	-1.0%
CCC1CCCCN1C(=O)Nc1cccc(NC(=O)N2CCCCC2CC)c1 (stereo not drawn)	-0.6%
O=C(Nc1ccon1)c1ccc(S(=O)(=O)N2CCCCCC2)cc1	-22.6%
Cc1noc(C)c1C(=O)OCC(=O)c1c(N)n(CC(C)C)c(=O)n(C)c1=O	26.4%
c1ccn(-c2ncnc3sc4c(c23)CCCC4)c1	7.7%
N#CC(C(=O)Nc1ccc(Cl)cc1)=C1Nc2ccccc2N1	-19.1%
Cc1nn(CCC#N)c2c1P(=S)(N1CCCC1)OC(c1ccc(F)cc1)=N2 (stereo not drawn)	134.9%
Cc1ccc(-n2nnc3c(=O)n(CC(=O)OCc4ccccc4)cnc32)cc1	-4.1%
O=C(O)c1ccc(NS(=O)(=O)c2ccc3c(c2)OCCO3)cc1	1.9%
Oc1ccc(-c2nnc(SCC3CCCCC3)o2)cc1	11.1%
OC(CNCC(c1ccco1)N1CCCCC1)c1ccccc1 (stereo not drawn)	15.7%
Cn1c(=O)c2c(nc(CN3CCN(Cc4ccccc4)CC3)n2Cc2ccc(F)cc2)n(C)c1=O	23.5%
CNCCCCCCCCSc1nc(C(C)C)ccc1C(=O)c1cccs1	121.7%
CN1CCc2cc(O)c(O)cc2[C@H](c2ccccc2)C1	-1.9%
CCOC(=O)c1c(N)n(CCCOC(=O)c2ccco2)c2nc3ccccc3nc12	27.3%
Cc1cc(O)c2c(c1)C(=O)c1cc(O)cc(O)c1C2=O	-15.4%&-10.7%&-12.5%
CC(C(=O)Nc1ccccc1-c1ccccc1)N1CCN(C(=O)c2ccco2)CC1 (stereo not drawn)	88.0%
COCC(=O)Nc1cccc(Br)c1	-5.0%
CCc1nnc(N2CCN(c3ncnc4c3oc3ccccc34)CC2)s1	75.5%
COc1cc(OC)cc(-c2cc3nc4c(c(N5CCN(c6cnccn6)CC5)n3n2)CCCC4)c1	41.0%
CCc1ccccc1N(CC(=O)Nc1cccc(N(C)S(C)(=O)=O)c1)S(C)(=O)=O	23.8%
COc1ccc(C)cc1NC(=O)c1nnn(Cc2cccc(F)c2)c1N	3.16µM*[single pt active]
CCC(Oc1ccccc1)C(=O)N1CCC(C(N)=O)CC1 (stereo not drawn)	-1.6%
COC(=O)C(O)(NC(=O)NC(C)=O)C(F)(F)F (stereo not drawn)	5.1%
CC(C)CCN1C(=O)c2ccc(C(=O)NCC3CCCO3)cc2C1=O (stereo not drawn)	45.0%
Cc1ccc(CSC2=Nc3ccccc3C3=NC(CC(=O)NCc4ccco4)C(=O)N23)cc1 (stereo not drawn)	80.7%
O=S(=O)(Nc1ccc2c(c1)OCCO2)c1ccc2oc3ccccc3c2c1	-20.9%
CCc1ccc(C(=O)N2CCN(c3ccc(F)cc3)CC2)s1	18.1%
Oc1ccc(-c2nc3ncccn3c2Nc2ccc3c(c2)OCO3)cc1	-16.8%
O=C(NCCN1CCCCC1)c1c(O)c2ccccc2[nH]c1=O	-3.4%
CCOCCCn1c(SCC(=O)Nc2ccc(C(N)=O)cc2)nc2ccccc2c1=O	-14.8%
COc1ccc(S(=O)(=O)N2CCC(C(N)=O)CC2)c2ccccc12	41.6%
COC(=O)c1ccc(C(NC(=O)OCc2ccccc2)/C(I)=C/[C@@H](C)C(=O)NCc2ccc(OC)c(O)c2)cc1 (stereo partly drawn)	11.6%
CN(C)c1ncc2nc(CCc3ccccc3)c(=O)n(C3CC3)c2n1	0.2%
O=C(CN1C(=O)C2C3C=CC(C3)C2C1=O)NCc1ccc2c(c1)OCO2 (stereo not drawn)	-3.4%
N#CC1=C2C=Cc3ccccc3N2CCCC1=O	6.4%
CC1(C)CC(=O)C2=C(C1)NC(=O)CC2c1ccc(F)cc1 (stereo not drawn)	4.6%
CN(C)c1ccc(/C=C/C(O)=C2/C(=O)N(C)C3(C)CC2c2ccccc2O3)cc1 (stereo not drawn)	11.7%
Cc1ccc2c(c1)[nH]c1c(N3CCN(Cc4ccccc4)CC3)ncnc12	31.1%
Going on with the list.
SMILES	AmpC inh no det
O=c1c2ccccc2nc(-c2ccccc2)n1Cc1ccco1	13.1%
O=C(Cn1ncc2c(=O)oc3ccccc3c21)NCCCN1CCCC1=O	3.98µM*[single pt active]
CCOC(=O)c1cnc2c(C#N)c(C)nn2c1-c1ccccc1	3.98µM*[single pt active]
COc1ccccc1-c1nnc(SCC(=O)N2CCC(C)CC2)o1	33.6%
CC(C)CCN(C(=O)CNC(=O)c1ccco1)C(C(=O)NC1CCCCC1)c1ccco1 (stereo not drawn)	47.3%
O=S(=O)(c1ccccc1F)N(Cc1ccco1)Cc1nnc(-c2ccccc2Br)o1	15.8%
O=C(Cn1c(=O)n(Cc2ccco2)c(=O)c2ccccc21)Nc1cccc(Cl)c1	2.51µM*[single pt active]
CN(C)C(=O)CSc1nc(SCC(=O)N(C)C)n(-c2ccccc2)n1	5.9%
CC1=C(C(=O)Nc2ccccc2)C(c2ccncc2)C(C#N)=C(SCC(=O)NC2CC2)N1 (stereo not drawn)	-7.3%
Cc1ccc(C)n1CCN1CCN(C(=O)CSc2nc3ccccc3nc2N2CCOCC2)CC1	149.1%

Among those listed so far, 9 have an NH in an aromatic ring.
SMILES	AmpC inh no det
O=C(NCCc1c[nH]c2ccccc12)c1c(Cl)nc2sccn12	12.6µM*
Cc1ccc(Nc2nc(Oc3ccc(=O)[nH]n3)nc(N(C)C)n2)cc1	15.0%
CCN(CC)CC[n+]1ccc2c(C)c3[nH]c4ccccc4c3c(C)c2c1	-9.7%[5.75 µM]
CCCn1c(N)c(C(=O)CSc2nnc(-c3ccco3)n2Cc2ccccc2)c(=O)[nH]c1=O	18.9%
Cn1c(=O)[nH]c(=O)c2c1nc(CN1CCN(c3cccc(Cl)c3)CC1)n2CCCc1ccccc1	48.0%
Cn1c(SCc2nc3ccccc3[nH]2)nnc1-c1ccccn1	-0.3%
CC(C)[C@@H](CC(=O)N[C@@H]1CCNC[C@H]1C(=O)N[C@H](CC(=O)N[C@@H](CCC(=O)O)CC(=O)O)Cc1c[nH]c2ccccc12)NC(=O)C[C@H](CO)NC(=O)[C@@H]1CCCC[C@H]1N	41.6%
O=C(NCCN1CCCCC1)c1c(O)c2ccccc2[nH]c1=O	-3.4%
Cc1ccc2c(c1)[nH]c1c(N3CCN(Cc4ccccc4)CC3)ncnc12	31.1%

Some of the compounds tested; rates above refer to the full screens.
